CDC25B-CDK2 inh = human CDC25B-CDK2/CyclinA binding inhibition; P30305+P24941; HTRF CDC25B-CDK2/CyclinA binding, anti-His/anti-Flag; stronger effect = higher value; z-score (no concentration beside the values); 94,000 tested, 0.72% active; AID 1259370;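 further: score is relative to mean and SD of negative controls; strong numbers were not always called active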
HIV TAR-Tat = HIV-1 TAR-Tat binding disruption; HIV-1 TAR RNA, Tat peptide displacement FRET; stronger effect = higher value; z-score (test concentration not listed); 100,000 tested, 0.6% active;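 further: score is relative to mean and SD of negative controls; some compounds called inactive have numbers as strong as hits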
* = called active by the depositor; / = not tested or not shown.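 How the source made its calls: active means z-score from 3 up in half or more of its runs; inactive means the rest.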 Rows were taken by chance; 0.94% or so of the library scored in one or more.

Sample of the layout, 3 compounds:
SMILES	CDC25B-CDK2 inh	HIV TAR-Tat
CC(C)OC(=O)CSc1n[nH]c(=O)[nH]c1=O	-1.6	-1
O=c1[nH]nc2c(Oc3ccccc3)nc3ccccc3n12	-0.41	0.25
Cc1cc(=O)n2[nH]c(CN(C(=O)c3ccco3)c3ccccc3)nc2n1	-2	0.84

The listing (from the top)
SMILES	CDC25B-CDK2 inh	HIV TAR-Tat
CC(C)OC(=O)CSc1n[nH]c(=O)[nH]c1=O	-1.6	-1
O=c1[nH]nc2c(Oc3ccccc3)nc3ccccc3n12	-0.41	0.25
Cc1cc(=O)n2[nH]c(CN(C(=O)c3ccco3)c3ccccc3)nc2n1	-2	0.84
COc1ccc(S(=O)(=O)[C@H]2CS(=O)(=O)C[C@@H]2NC2CCCCC2)cc1	-1.8	-0.38
Cc1cc2c3c([nH]c2cc1S(=O)(=O)Nc1ccc2c(c1)OCO2)CC(C)(C)CC3=O	/	-0.25
O=C1c2ccccc2-c2c1c(-c1ccc3c(c1)OCO3)nc1ccc3ccccc3c21	-0.11	/
Cc1c(C(=O)C(=O)N2c3ccccc3CC2C)c2ccccc2n1C (configuration not stated)	-0.69	1.2
COC(=O)c1c(C)sc(-c2c(-c3ccccc3)[nH]c3c2c(=O)n(C)c(=O)n3C)c1O	-1.2	-5.9
COCCCNc1nc(=O)[nH]nc1C	-0.41	1.8
COc1cc(Cl)c(NS(=O)(=O)c2ccc(-c3cnc(C4CC4)o3)cc2)c(OC)c1	/	0.06
COc1ccc(S(=O)(=O)N2CCCC2C(=O)N2CCc3cc(OC)c(OC)cc3C2)cc1 (configuration not stated)	1.1	1.4
Cc1cc(NC(=O)C2c3ccccc3C(=O)N(CC(C)C)C2c2cccs2)no1 (configuration not stated)	/	2.4
CCCn1c2ccccc2c2cnn(CC(=O)NC(C)CC)c(=O)c21 (configuration not stated)	/	0.66
COc1ccc(OCc2nn3c(C(C)C)nnc3s2)cc1	-0.65	0.55
O=C(Nc1cccc(Cl)c1)C1Sc2nnc(-c3ccccc3)n2NC1c1ccccc1 (configuration not stated)	-1.6	2.8
O=C(NCc1ccc(C(=O)N2CCOCC2)o1)NC1CCCC1	/	1.8
Cc1ccc2nc(C3=C(O)CN(c4ccc(N5CCCCC5)cc4)C3=N)[nH]c2c1	-1.8	0.2
COc1cc(OC)c(NS(=O)(=O)c2c(C)nc3sc4ccccc4n3c2=O)cc1Cl	/	2.6
O=C1OCc2cc(NS(=O)(=O)c3cccs3)ccc21	-1.1	-0.44
O=C(CCC(=O)N1CCSc2ccccc21)N1CCCCC1	-2.2	2.4
O=C(CC1(O)C(=O)N(Cc2cccc3ccccc23)c2ccccc21)c1ccccc1 (configuration not stated)	-0.99	/
COc1cc2c(cc1OC)C(c1ccc(F)cc1)CC(=O)N2 (configuration not stated)	-3.1	0.46
CCOC(=O)c1ccc2[nH]c(CSc3nnc(-c4ccc(C)cc4)n3C)cc(=O)c2c1	/	0.14
Cc1ccc(-c2noc3ncnc(NCc4ccccc4Cl)c23)cc1	/	2
CC(C)(C)c1csc(NC(=O)CSc2ccccc2)n1	/	0.21
Cc1ccc(NS(=O)(=O)c2ccc(-c3cc(C)[nH]n3)s2)cc1	/	0.35
CC12CN3CC(C)(CN(C1)C3c1cccc(N)c1)C2=O (configuration not stated)	0.95	1.1
COc1ccc(OC2C(=O)N(Cc3ccc4c(c3)OCO4)C2c2cccs2)cc1 (configuration not stated)	-0.47	-2.5
COc1cc(OC)c(OC)cc1CN1CCN(Cc2ccc3ccccc3c2)CC1	-0.24	/
COc1ccc(S(=O)(=O)Nc2ccc3oc4ncccc4c(=O)c3c2)cc1OC	0.11	/
CC(C)(C)c1cc(C(C)(C)C)n(-c2ccc(NC(=O)COCC(=O)O)cc2)n1	-0.09	/
CCOc1ccc(OCC)c2sc(C)nc12	1	0.19
Nc1nc(-c2ccc(-n3cccc3)cc2)cc(C(F)(F)F)n1	0.93	/
N#CCCSc1sc(=S)sc1SCCC#N	-0.17	/
O=C(CSc1nc(=O)n(CCN2CCOCC2)c2c1CCC2)Nc1ccc(F)cc1	/	0.39
COc1ccc(-c2[nH]nc3nc(-c4ccc(OC)c(Br)c4)cc(C(=O)O)c23)cc1	/	1.6
CC1(C)CC(=O)c2c(nc(SCC(=O)NCc3ccc4c(c3)OCO4)c(C#N)c2-c2ccccc2)C1	-0.52	-0.96
O=C(Cn1cnc2c(oc3ccccc32)c1=O)c1ccccc1	/	1.5
CCc1c(NCc2ccccc2)c2cccc3c2n(c1=O)CCC3	-0.38	/
COc1ccc(NS(=O)(=O)c2cc(Br)cnc2N)cc1	-1.4	2.4
O=c1cc(C(F)(F)F)[nH]c(=S)[nH]1	-1.5	/
c1csc(-c2noc(CNC3Cc4ccccc4C3)n2)c1	-0.94	/
O=C1CC(c2ccccc2)Cc2nc(N3CCc4ccccc4C3)ncc21 (configuration not stated)	-0.58	1
Cc1nc(N2CCCC2)ncc1C(=O)Nc1ccc2c(c1)OCCO2	/	1.6
CCCCCN(CCCOC)C(=O)C(CCC(=O)O)NC(=O)c1ccc(Cl)c(Cl)c1 (configuration not stated)	-2.4	/
COc1ccc(OCC2OC(c3ccc(Br)cc3)=NN2C(C)=O)cc1 (configuration not stated)	/	0.37
COc1cccc(N2CC(O)=C(c3nc4ccccc4[nH]3)C2=N)c1	-1.9	1.9
CCOC(=O)c1nnc2c(-c3ccc(OC)cc3)c(C)nn2c1N	-2.3	0.06
CC1CCN(c2ncnc3onc(-c4cc(F)cc(F)c4)c23)CC1	/	1.2
O=C(Nc1ccc(C(=O)NCCc2ccco2)cc1)C1=CSCCO1	/	0.88
Cc1nn(CC(=O)NCCCN2CC(C)CC(C)C2)c(=O)c2cc3cc(F)ccc3n12 (configuration not stated)	-0.35	0.03
CCOC(=O)c1cn[nH]c1S(=O)(=O)Nc1ccc(F)cc1F	/	-0.14
N#CC1(C#N)C2C=CC(C2)C1(C#N)C#N	-3.4	/
CC(C)c1ccc(NC(=O)CSc2nc(-c3ccccc3)nc3cc(=O)[nH]n23)cc1	/	1.1
CCOC(=O)CSc1nc2ncccc2[nH]1	1.1	/
O=C(NCC1CCCO1)c1nn(-c2ccc(Cl)cc2)nc1CO (configuration not stated)	-0.31	1.3
CC(C)=NOC(=O)Nc1ccc(C(F)(F)F)cc1	-0.74	/
CC1CCCC(C)N1CCCNC(=O)c1csc2c1CCCC2 (configuration not stated)	-2.2	-0.68
C=CCn1c2ccccc2c2nnc(SCC(=O)OCN3C(=O)c4ccccc4C3=O)nc21	-4.6	/
Cc1nn(CCC#N)c(C)c1Cc1c(Cl)cccc1Cl	-1.7	/

Looked up one by one from above (five):
SMILES	CDC25B-CDK2 inh	HIV TAR-Tat
COC(=O)c1c(C)sc(-c2c(-c3ccccc3)[nH]c3c2c(=O)n(C)c(=O)n3C)c1O	-1.2	-5.9
O=C(CCC(=O)N1CCSc2ccccc21)N1CCCCC1	-2.2	2.4
CCOc1ccc(OCC)c2sc(C)nc12	1	0.19
Cc1nn(CC(=O)NCCCN2CC(C)CC(C)C2)c(=O)c2cc3cc(F)ccc3n12 (configuration not stated)	-0.35	0.03
CCOC(=O)c1nnc2c(-c3ccc(OC)cc3)c(C)nn2c1N	-2.3	0.06

More results.
SMILES	CDC25B-CDK2 inh	HIV TAR-Tat
Cc1ccnc(NS(=O)(=O)c2ccc(NC(=O)Nc3cccc(Cl)c3)cc2)n1	0.28	/
CN(C)c1ccc(C2N3CC4(C)CN2CC(C)(C3)C4O)cc1 (configuration not stated)	-2	-0.45
CCn1cc(C(=O)NC2CCC(C)CC2)c(=O)c2cc(S(=O)(=O)N3CC(C)CC(C)C3)ccc21 (configuration not stated)	-1.6	0.29
COC(=O)C(c1ccccc1)C1(O)CC(C)N(C)CC1C (configuration not stated)	-1.2	/
CCC(C)NC(=O)C1CCCN(S(=O)(=O)c2ccc3c(c2)CC(C)N3C(=O)C2CC2)C1 (configuration not stated)	/	-0.14
CC1CSc2ccc(S(=O)(=O)NCCN3CCCC3)cc2NC1=O (configuration not stated)	/	0.96
CCOC(=O)c1ccc(NC(C)=O)c([N+](=O)[O-])c1	-1.1	/
Cc1ccc(C2C(C(=O)c3cccs3)=C(O)C(=O)N2c2nnc(C)s2)cc1 (configuration not stated)	-0.72	/
CN(CCNC(=O)C1CCCN(c2nn3c(=O)c4c(nc3s2)CCCC4)C1)Cc1ccccc1 (configuration not stated)	/	0.75
COC(=O)c1ccc(S(=O)(=O)NNc2c(Cl)cncc2Cl)n1C	-3	/
O=S(=O)(Nc1ccccc1Cl)c1ccc(N2CCCCS2(=O)=O)cc1	/	-0.2
CC1CCN(S(=O)(=O)c2ccc3nc(N4CCN(c5ccc(F)cc5)CC4)ccc3c2)CC1	/	2.6
Clc1cccc(-c2nc(N3CCOCC3)nc3c2COc2ccccc2-3)c1	0.44	1.9
CC1CCCC(C)N1CCCNC(=O)Nc1cn(C)c(=O)c2ccccc12 (configuration not stated)	/	-0.47
O=c1c2cc3c(cc2nc2sc(Nc4ccc(Cl)cc4)nn12)OCO3	/	0.72
COc1ccc(OCC(O)Cn2ccnc2C)cc1 (configuration not stated)	-2	0.44
COc1ccc(OC)c(S(=O)(=O)N2CCCc3ccccc32)c1	-0.88	/
O=C(O)c1c(-c2cccc(F)c2)noc1N1CCOCC1	-0.07	0.11
O=C1C(c2ccccc2)=C(c2ccccc2)c2ccccc21	-1.1	1.3
C=CCc1cc(C=C2C(=O)c3ccccc3C2=O)cc(OC)c1OCC(=O)O	0.28	/

3 consecutive entries already listed, for reference:
SMILES	CDC25B-CDK2 inh	HIV TAR-Tat
COC(=O)c1ccc(S(=O)(=O)NNc2c(Cl)cncc2Cl)n1C	-3	/
O=S(=O)(Nc1ccccc1Cl)c1ccc(N2CCCCS2(=O)=O)cc1	/	-0.2
CC1CCN(S(=O)(=O)c2ccc3nc(N4CCN(c5ccc(F)cc5)CC4)ccc3c2)CC1	/	2.6

Other compounds follow.
SMILES	CDC25B-CDK2 inh	HIV TAR-Tat
O=C(c1ccc2c(c1)OCO2)N1CCc2c([nH]c3ccccc23)C1c1ccccc1 (configuration not stated)	/	0.95
COc1ccc(S(=O)(=O)N2CCN(C(=O)c3ccc(-c4ccccc4)cc3)CC2)cc1	-6	/
CCSc1nnc(NC(=O)c2nc(SC(C)C)ncc2Cl)s1	-1.3	0.51
COc1ccc(OC)c(S(=O)(=O)CC(O)COc2ccccc2Cl)c1 (configuration not stated)	0	/
CCCN(Cc1ccc(C)cc1)Cc1cc(=O)c2cc(Cl)ccc2[nH]1	/	-1.7
O=C(c1ccco1)N1CCN(C(=O)C2CCN(c3nnc(N4CCCCC4=O)s3)CC2)CC1	/	0.51
CC1CCCCC1Nc1nc2ccccc2n2nnnc12 (configuration not stated)	-0.22	-0.51
Cc1cc(NC(=O)Nc2cnccc2C(F)(F)F)no1	0.15	/
CNC(=O)Cc1csc2ccc(Cl)cc12	0.25	/
Cn1ncc2c(N3CC=C(c4ccccc4)CC3)ncnc21	/	2.5
O=C(NCc1cc2ccccc2s1)c1ccccc1N1CCOCC1	-0.54	/
COC(=O)C1Cc2nccn2C(=O)N1 (configuration not stated)	-1	-0.46
O=S(=O)(c1ccc(F)cc1)N1CCc2cc3ccccc3nc21	0.83	1.3
O=C(NCC1CCCO1)C1CCN(C(=O)c2ccc(-n3ccc4ccccc43)s2)CC1 (configuration not stated)	/	0.45
COc1cc(C/C=C/c2ccccc2)c(OC)cc1O	/	0.73
Cc1ccc(C(c2ccccc2)c2cn(C)c3ccccc23)s1 (configuration not stated)	-1.7	1.5
O=C1CC(c2nc3ccccc3n2CCCOc2ccccc2)CN1c1ccc(F)cc1 (configuration not stated)	0.11	2
CCOC(=O)c1cnn2c(C(F)(F)F)cc(-c3ccc(OC)c(OC)c3)nc12	/	1.4
Cc1cc(C(F)F)n2nc(C(=O)Nc3cccc(Cl)c3)nc2n1	0.29	/
COc1ccc(NS(=O)(=O)c2ccc3[nH]c4c(c3c2)CCCC4)cc1	/	-1.3
N#Cc1cn(Cc2ccccc2)c2ccccc12	0.4	0.72
CCOC(=O)C1CCCN(C(=O)c2cc(S(=O)(=O)N3CCCCC3)c[nH]2)C1 (configuration not stated)	/	2.2
CCOc1ccc(-c2nnc3ccc(SCC(=O)c4ccccc4)nn23)cc1	-1.8	/
NC(=O)c1cccc(CSCc2csc3ccccc23)c1	-1.4	/
Cc1nccnc1-c1ccnn1C(=O)c1c(C)noc1C	-1.5	/
N#CC(C(=S)Nc1ccccc1)c1nc2ccccc2[nH]1 (configuration not stated)	-0.51	/
COCCNC(=O)c1cnc2sc(N3CCC(C)CC3)nn2c1=O	/	-0.5
O=C(Nc1nnc(COc2ccccc2Cl)s1)Nc1ccc(Cl)cc1Cl	-1.7	/
COc1ccc(-c2nc3nc(C)cc(N(CCO)CCO)n3n2)cc1	-1.4	-0.15
O=C(Cn1c(=O)oc2cc(S(=O)(=O)N3CCCC3)ccc21)Nc1cccc(Cl)c1	0.96	0.61
Cc1ccc(C2CC(=O)C(C)C(c3ccc(C)cc3)N2)cc1 (configuration not stated)	-0.17	-0.85

Given in markdown: part of the list above.
| smiles | CDC25B-CDK2 inh | HIV TAR-Tat |
| --- | --- | --- |
| COc1cc(Cl)c(NS(=O)(=O)c2ccc(-c3cnc(C4CC4)o3)cc2)c(OC)c1 | / | 0.06 |
| COc1ccc(S(=O)(=O)N2CCCC2C(=O)N2CCc3cc(OC)c(OC)cc3C2)cc1 (configuration not stated) | 1.1 | 1.4 |

Bioassay records (PubChem)
